Bioassay records from PubChem BioAssay.
A488 autofl = compound fluoresces in the A488 spectral region | max dye equivalency, M | compound autofluorescence, A488 spectral region, dye equivalency; stronger effect = higher value | AID 591 | hit rate 0.1% among 59,000; active = above 10 nM dye equivalent; inconclusive = 1 to 10 nM; inactive = 1 nM or less; about half of its hits are not listed in these tables;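 note: highest value over a series up to 38 µM; compound alone in buffer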
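Autofluorescence read at ex 480/em 540 nm after 15 min RT in 100 mM Tris pH 8.0; compound signal normalized to A488 standard series on each plate, reported as dye-equivalent concentration at each test concentration.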
Resorufin fluor = compounds fluorescent in resorufin spectral region. AID 588. max dye-equivalent concentration, M. hit rate 0.04% among 59,000. Compound fluorescence, resorufin region 547/598 nm, buffer; stronger effect = higher value; active = above 10 nM dye equivalent; inconclusive = 1 to 10 nM; inactive = 1 nM or less; a few of its hits are not listed in these tables; note: highest value over a series up to 38 µM
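Tris 100 mM pH 8.0; compound added, 15 min RT; CCD imager read, ex 547 nm/em 598 nm; signal normalized to resorufin standard curve (six concentrations per plate) as dye-equivalent concentration.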
TSHR agonist = agonists of human thyroid stimulating hormone receptor; HEK293-CNG-TSHR cells (CNG channel as cAMP sensor), membrane potential dye, cAMP; Potency, µM (doses to about 57.1 µM), for inactives: at the highest dose activation, usual class: activators; hit rate 0.48% among 73,000; active = well fitted activation curve of enough size with the parental cells flat; inconclusive = any curve in the parental cells; inactive = parental cells flat and receptor cells flat or falling; note: potency is the fitted concentration of half-maximal effect; % of control where 0% means no effect; weak receptor curves with flat parental cells got no call and are not listed
Target sequence (P16473 whole entry, looked up): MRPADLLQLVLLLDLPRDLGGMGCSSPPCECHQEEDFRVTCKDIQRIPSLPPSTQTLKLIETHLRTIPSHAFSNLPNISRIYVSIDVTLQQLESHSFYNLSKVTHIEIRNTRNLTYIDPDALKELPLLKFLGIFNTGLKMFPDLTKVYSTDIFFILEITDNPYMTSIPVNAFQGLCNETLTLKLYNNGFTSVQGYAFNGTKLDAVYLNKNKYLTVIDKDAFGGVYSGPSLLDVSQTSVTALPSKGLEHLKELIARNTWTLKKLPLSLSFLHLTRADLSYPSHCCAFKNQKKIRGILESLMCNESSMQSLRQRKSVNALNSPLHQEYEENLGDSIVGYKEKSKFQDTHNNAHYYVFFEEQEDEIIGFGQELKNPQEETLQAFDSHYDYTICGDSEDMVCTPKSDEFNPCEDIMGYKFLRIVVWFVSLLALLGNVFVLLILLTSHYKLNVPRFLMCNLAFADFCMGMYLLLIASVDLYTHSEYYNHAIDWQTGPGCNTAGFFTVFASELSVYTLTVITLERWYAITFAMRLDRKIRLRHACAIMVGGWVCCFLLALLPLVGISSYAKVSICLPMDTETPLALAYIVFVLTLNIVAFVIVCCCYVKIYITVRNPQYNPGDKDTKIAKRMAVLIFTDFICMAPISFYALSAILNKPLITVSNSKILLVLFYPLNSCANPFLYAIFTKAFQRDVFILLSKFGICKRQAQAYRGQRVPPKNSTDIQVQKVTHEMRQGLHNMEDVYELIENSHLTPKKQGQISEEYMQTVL
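HEK 293 cells stably expressing TSHR and a modified CNG channel, with CNG-only parental cells as counterscreen, were preloaded 60 min at room temperature with membrane potential dye containing 100 uM RO 20-1724. Compound exposure was 30 min, and depolarization was read as fluorescence at 590 nm.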
AID923 = qHTS Assay for Allosteric/Competitive Inhibitors of Caspase-1: Spectroscopic Profiling in AFC Spectral Region. compound fluorescence, AFC spectral region (405/520 nm); almost no hit is shown here. Potency, µM (highest dose often 57.5 µM), inactives show top-dose fluorescence increase, most hits filed as activators. hit rate 1.1% among 75,000. AID 923, 2007; active = well fitted activation curve with a large enough effect; inconclusive = small, poorly fitted or top-dose-only effect;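 note: potency is the fitted concentration of half-maximal effect; 0% is about no effect; scaled to a free AFC standard on each plate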
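Compound autofluorescence profiled at 405 nm ex/520 nm em during kinetic caspase 1 run (50 nM enzyme, 5 uM Ac-WEHD-AFC, HEPES pH 7.5, 10 mM DTT). Titration up to 57 uM; baseline from regression intercept, normalized to AFC standard curve.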
A647 autofl = compound fluoresces in the A647 spectral region. max dye-equivalent concentration, M. AID 592. 59,000 tested, under 10 active. Compound fluorescence, A647 channel (570/671 nm), Tris buffer; active means above 1 µM dye equivalent; inconclusive means 0.1 to 1 µM; inactive means 0.1 µM or less;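 note: values scaled relative to a standard on each plate; highest value over a series up to 38 µM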
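Compounds pinned into 100 mM Tris pH 8.0, 15 min at room temperature, then read with 570 nm excitation/671 nm emission filters. Fluorescence normalized to an on-plate six-point Alexa 647 standard curve, giving dye-equivalent concentration per compound concentration.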
* = called active by the depositor; i = inactive; ? = inconclusive; nt = not tested or not shown; [ ] = dose if it differs, or a comment. Only part of the results is shown; count on the stated rates, not on these rows.

SMILES	A488 autofl	Resorufin fluor	TSHR agonist	AID923	A647 autofl
Cc1ccc(-n2nc3c(c2NC(=O)c2ccc4c(c2)OCO4)CS(=O)C3)cc1 (stereo not drawn)	i	i	8%	1.5%	6.4e-09
Cc1c(C)c2cc(Cl)c(OCc3nn[nH]n3)cc2oc1=O	i	i	-7%	7.2%	3.4e-08
CCc1sc(C(=O)NC2CCN(C)CC2)cc1Br	i	i	0%	-1.1%	7.7e-09
CN1CCN(C(=O)c2sc(=S)n(-c3ccccc3)c2N)CC1	i	i	-2%	1.3%	3.4e-09
O=C1c2ccccc2C(=O)N1CCc1nc(-c2cccnc2)no1	i	i	-4%	4.1%	2.4e-08
CCOc1ccc(CCNC(=O)C2CCN(C(=O)N(C)C)CC2)cc1OCC	i	i	0%	1.1%	8.1e-09
CC(=O)c1c(C)[nH]c(C(=O)N2CCCCCC2)c1C	i	i	-1%	1.2%	1e-09
O=C(c1ccc2c(c1)OCCCO2)c1cccs1	i	i	5%	-1.9%	1.8e-09
Cn1cccc1C(=O)N1CCC2(CCN(Cc3ccncc3)CC2)CC1	i	i	-1%	2.1%	1e-09
O=C(NCc1ccco1)Nc1ccc2snnc2c1	nt	nt	-3%	0.7%	nt
CSc1nc(C)c2c(n1)OC(CN1C(=O)c3ccccc3C1=O)C2 (stereo not drawn)	nt	nt	2%	-1.1%	nt
COC(=O)C1=C(C)N(CCc2ccc(OC)cc2)C(=O)C1	nt	nt	?	-0.9%	nt
Cc1cc2c(c(=O)o1)[C@H](O)[C@H]1O[C@@H]1C2=O	nt	nt	0%[11.4 µM]	-1.2%[11.5 µM]	nt
COc1cc(C(=O)NCc2cn3ccccc3n2)cc(OC)c1OC	i	i	7%	0.5%	1.1e-08
c1ccc(CNc2cc(-c3cccnc3)ncn2)cc1	i	i	-2%	-0.4%	1.7e-08
CC1CC(C)CN(C(=O)CSc2nnc(-c3ccc(F)cc3)o2)C1 (stereo not drawn)	nt	nt	20%	0.8%	nt
CCOC(=O)c1oc2ccc(S(=O)(=O)N3CCOCC3)cc2c1C	i	i	11%	-2.3%	5.9e-09
CC(C)[C@H](Sc1nc(N)nc2nc[nH]c12)C(=O)O	i	i	-2%[11.4 µM]	0.7%[11.5 µM]	3.6e-08
O=C(NCc1ccc2c(c1)OCO2)C1CC(=O)N(C2CCCCCC2)C1 (stereo not drawn)	i	i	14%	0.9%	1e-09
COc1ccc2c(Cl)c(-c3nnc4n3CCCCC4)sc2c1	i	i	13%	-1.0%	3.6e-09
Cc1cc(C(=O)OCC(=O)Nc2cc(C)on2)c2ccccc2n1	i	i	-2%	0.4%	3.2e-08
CC1CC(C)CN(c2ncnc3c2cnn3Cc2ccc(Cl)cc2)C1 (stereo not drawn)	i	i	40%	-1.9%	1e-09
Cc1noc(NS(=O)(=O)c2ccc(NC(=O)CSc3ncccn3)cc2)c1C	nt	nt	3%	1.4%	nt
O=C(NCCN1CCN(C(=O)c2cc3ccccc3oc2=O)CC1)c1cc2ccccc2oc1=O	i	i	?	0.5%	3.1e-08
CCOc1ccc(C(=O)Cc2ccc3oc(C(=O)O)cc3c2)c(O)c1	i	i	6%	-0.5%	5.7e-08
O=C(COc1ccc(Cl)cc1)Nc1nnc(-c2ccc3c(c2)CCCC3)o1	nt	nt	13%	-0.1%	nt
N#Cc1c(NC(=O)CSc2nnnn2C2CCCCC2)sc2c1CCCC2	i	i	10%	-2.2%	5.6e-09
O=C(Nc1cccc(-c2cn3ccsc3n2)c1)c1ccccc1	i	i	1%	1.9%	2.1e-08
O=C1CCCc2nc(NCc3ccco3)ncc21	i	i	-1%	-1.3%	8.8e-09
CCOC(=O)c1c(N)ssc1=S	nt	nt	-7%	2.1%	nt

The closing 6 entries of the section before lead into the next:
SMILES	A488 autofl	Resorufin fluor	TSHR agonist	AID923	A647 autofl
CCOc1ccc(C(=O)Cc2ccc3oc(C(=O)O)cc3c2)c(O)c1	i	i	6%	-0.5%	5.7e-08
O=C(COc1ccc(Cl)cc1)Nc1nnc(-c2ccc3c(c2)CCCC3)o1	nt	nt	13%	-0.1%	nt
N#Cc1c(NC(=O)CSc2nnnn2C2CCCCC2)sc2c1CCCC2	i	i	10%	-2.2%	5.6e-09
O=C(Nc1cccc(-c2cn3ccsc3n2)c1)c1ccccc1	i	i	1%	1.9%	2.1e-08
O=C1CCCc2nc(NCc3ccco3)ncc21	i	i	-1%	-1.3%	8.8e-09
CCOC(=O)c1c(N)ssc1=S	nt	nt	-7%	2.1%	nt
CC(C)N(Cc1nc(-c2ccc(Cl)cc2)no1)C(=O)c1cccs1	i	i	5%	0.0%	2.3e-08
O=C1C2C3C=CC([C@@H]2C(=O)N1c1nccs1)C31CC1 (stereo partly drawn)	i	i	-7%	-0.1%	1e-09
C=CCn1c(COc2ccc(F)cc2)nnc1SCC(=O)NC(=O)NCc1ccco1	i	i	3%	-0.2%	1e-09
Cc1ccc(S(=O)(=O)NCc2ccco2)cc1C	nt	nt	3%	0.3%	nt
CC(C)(CO)Cc1cc(C(C)(C)C)c(O)c(C(C)(C)C)c1	i	i	?	-3.6%	2.4e-08
Cc1nn(C)c(C)c1S(=O)(=O)N(CC(=O)NCCCOC(C)C)c1ccc(C(C)C)cc1	i	i	6%	0.3%	2.7e-09
COc1ccccc1-c1ccc(=O)n(CC(=O)NC(C)(C)C)n1	i	i	0%	1.8%	1e-09
CC(C)(C[C@@]1(C)NC(=O)NC1=O)OCc1ccccc1	i	i	0%[11.4 µM]	2.0%[11.5 µM]	1e-09
Cc1nnc(C)n1/N=C/c1cccs1	nt	nt	-1%	-0.1%	nt
CCOc1ccc(C(=O)CCN2CCCCCC2)cc1	i	i	11%	-0.1%	3.3e-08
CCOC(=O)c1c(N)sc2c(OC)c(Br)ccc12	nt	nt	19%	-1.2%	nt
O=C(c1cccc(F)c1)N1CCC[C@@]2(CCN(c3ncccn3)C2)C1	i	i	3%	3.1%	2.2e-09
Cc1c(NC(=O)Nc2ccc(Cl)cc2)c(=O)n(-c2ccccc2)n1C	nt	nt	8%	-1.4%	nt
CCCCCCCCCCC/C=C\C(C)(C)/C=C\CCCC(=O)O	i	i	7%	-3.2%	1e-09
CN1CCN(c2nc3c(c(=O)[nH]c(=O)n3C)n2CCSc2ncccn2)CC1	i	i	-11%	-0.6%	3.8e-08
CCOc1ccc(-c2n[nH]c(C)c2Oc2ccc(OC)cc2)c(O)c1	i	i	4%	-0.3%	3.3e-08
Cc1ccc(SCc2[nH]nc3c2C(c2ccco2)C(C#N)=C(N)O3)cc1 (stereo not drawn)	i	i	?	1.1%	4.5e-09
COC(=O)C1=C(C)N(C)C(C)=C(C(=O)OC)C1c1ccccn1	nt	nt	5%	14%	nt
Cc1ccc(N2CC(C(=O)Nc3ccc(N(C)C)cc3)CC2=O)cc1C (stereo not drawn)	i	i	nt	nt	3.2e-08
CC(=O)c1ccc(NC(=O)CN2C(=O)COc3ccc(Cl)cc32)cc1	nt	nt	-8%	-1.8%	nt
COCc1[nH]nc2c1C(c1ccsc1)C(C#N)=C(N)O2 (stereo not drawn)	i	i	7%	-1.7%	5.3e-09
Oc1ccc(Br)cc1CNn1cnnc1	i	i	nt	nt	2.5e-08
Cc1c(C)n(CC(O)CN2CCCCCC2)c2ccccc12 (stereo not drawn)	nt	nt	9%	2.1%	nt
O=C(Oc1ccccc1)n1c(=O)oc2ccc(Cl)cc21	nt	nt	2%	5.7%	nt
O=S(=O)(c1cccs1)N1CCCc2ccccc21	nt	nt	?	-1.7%	nt
O=S(=O)(O)c1ccc(NN(c2c(O)ccc3ccccc23)S(=O)(=O)O)cc1	i	i	-6%[11.4 µM]	-1.9%[11.5 µM]	5.6e-08
O=C(NC1CCCCC1)c1cccc(S(=O)(=O)N2CCOCC2)c1	nt	nt	12%	-0.2%	nt
COc1ccccc1Cc1noc(COc2cccc(C)c2C)n1	i	i	nt	-0.3%	1e-09
COC(=O)c1ccc(CSc2nc3c(c(=O)n2-c2ccc(Br)cc2)SCC3)o1	i	i	?	-0.7%	1e-09
COc1ccccc1-n1cnc(N)c1C(C)=O	i	i	-2%	0.9%	2e-08
CC(C)(C)OC(=O)N1CCCC1C(=O)O (stereo not drawn)	i	i	-5%	1.0%	1e-09
O=C(Nc1ccc(F)cc1F)c1cc2n(n1)C(C(F)(F)F)C1CCCCC1N2 (stereo not drawn)	i	i	-9%	-2.5%	6.1e-08
COC(=O)CCCCCc1ccc(C(C)=O)s1	nt	nt	-5%	-1.7%	nt
COc1ccc(-c2cn[nH]c2N)c(OC)c1	i	i	-5%	-2.1%	4.3e-08
Cc1sc(C(=O)NCc2cccnc2)c2nc(C)n(CC(=O)NCc3cccnc3)c(=O)c12	i	i	2%	4.1%	4.6e-08
COc1ccc2[nH]c(=O)c(CN(CCO)C(=O)c3ccccc3F)cc2c1	i	i	30%	0.0%	3.6e-08
Cc1ccc(OCCNC(=O)c2ccccc2N)cc1	nt	nt	-17%	0.9%	nt
CCCCC(NC(C)=O)c1nc2ccccc2[nH]1 (stereo not drawn)	nt	nt	2%	0.8%	nt
COc1ccc(NC(=O)C(CC(C)C)NC(=O)c2ccccc2C)cn1 (stereo not drawn)	i	i	-10%	0.9%	7.9e-09
Cn1c(N2CCC(C(N)=O)CC2)nc2c1c(=O)n(Cc1ccc(Cl)cc1)c(=O)n2C	i	i	-1%	-0.5%	1e-09
Cc1c(O)cccc1C(=O)N[C@@H](CSc1ccccc1)[C@H](O)CN1C[C@H]2CCCC[C@H]2C[C@H]1C(=O)NC(C)(C)C	nt	nt	13%	2.9%	nt
CCN1CCN(C(c2cccs2)C(C)NC(=O)CC(C)C)CC1 (stereo not drawn)	i	i	2%	3.2%	3e-08
Fc1ccc(CSc2ncnc3nc[nH]c23)cc1	nt	nt	4%	-2.4%	nt
COc1cc(S(=O)(=O)N(Cc2ccc(C)cc2)C2CCCCC2)ccc1-n1cnnn1	i	i	6%	-0.3%	1.1e-08
CCOC(=O)C1=C(N)Oc2cc(C)oc(=O)c2C1c1cccnc1 (stereo not drawn)	i	i	13%	0.1%	4.1e-09
CC(C)c1cc(NCCCN2CCOCC2)n2c(nc3ccccc32)c1C#N	i	i	nt	nt	3.6e-08
CCOc1ccc(CCNC(=O)CN2CCN(Cc3ccccc3C)C2=O)cc1OCC	i	i	4%	0.4%	1e-09
CCOCCCNC(=O)c1ccccc1SC	i	i	0%	-0.4%	4.1e-09
CCOC(=O)c1[nH]c(C)c(/C(O)=C2\C(=O)C(=O)N(CCN(C)C)C2c2ccc(C)o2)c1C (stereo not drawn)	i	i	6%	2.8%	1.2e-08
CC(C)C[C@H](NC(=O)NCc1ccccc1Cl)C(=O)O	i	i	10%	0.4%	2.6e-08
CSCC[C@H](NC(=O)NCc1ccccc1F)C(=O)O	i	i	3%	1.1%	2.4e-09
OC[C@@H]1O[C@@H](n2cnc3c(NC4CCCCC4)ncnc32)[C@@H](O)[C@H]1O	i	i	nt	0.0%	1.3e-08
CC(C)NC(=O)c1nc2ccccc2s1	i	i	nt	11%	3e-09
O=C1c2ccccc2C(Nc2ccc3c(c2)OCCO3)N1c1ccccn1 (stereo not drawn)	nt	nt	19%	1.4%	nt
CC(C)(C)n1nnnc1C(c1cccs1)N1CCCc2ccccc21 (stereo not drawn)	i	i	?	2.4%	1e-08
FC(F)(F)c1ccccc1-c1nccc(N2CCNCC2)n1	i	i	0%	1.8%	1.3e-08
CCOC(=O)c1sc(=S)n(-c2ccccc2OC)c1N	i	i	6%[11.4 µM]	-0.7%	1e-09
